Autofluor counter = counter-screen for toxin protease inhibitors: compound fluorescence | fluorescence intensity (test concentration not listed) | 3.1% of 360,000 active | compound autofluorescence counterscreen, microsphere flow cytometry; hits give high values;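 active = at least 3 SD above the mean of all compounds, about 16000 in these data; inconclusive = too few beads counted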;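 also: 100 nL of 1 mM stock went into each well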
ugtP null kill = growth inhibition of ugtP-null S. aureus, primary screen, RN4220 ugtP deletion, OD600; 16 h; some inactives read as strong as hits; growth inhibition, % (test concentration not listed); 0.54% of 330,000 active;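 active = z-score under -3 and OD600 up to 0.15 on both plates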;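 also: plate controls were untreated wells for no effect and antibiotic for full effect; wells of about 80 µL received 100 nL stock; the first replicate is given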
RN4220 kill = growth inhibition of S. aureus RN4220, primary screen, OD600; 16 h; inhibition, % (test concentration not listed); 0.33% of 330,000 active;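 active = z-score of -3 or lower and OD600 up to 0.18 on both plates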;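 also: plate controls were untreated cells for no effect and reference antibiotic for full effect; stock transfer was 100 nL into about 80 µL; one replicate is shown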
PrP 5UTR inh = inhibition of PrP 5' UTR reporter expression; cell-based PrP 5' UTR mRNA reporter, plate reader; inhibition, % (no concentration beside the values); 0.35% of 340,000 active; AID 488862, 2010;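 active = every replicate at 50% or more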;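 also: 0 = median of the neutral control wells; tested in H4 reporter cells; numbers are from one replicate; inactives centre near -14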
BJeLR viability = MLPCN primary cell-based screen for lethality selective to Ras in HRASV12 cells; BJeLR (HRASV12) viability, CellTiter-Glo ATP luminescence, 48 h; reference of the scale not given here; inhibition, % (no concentration beside the values); 0.17% of 300,000 active; AID 1554, 2009;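 active = replicate mean above 50%; inconclusive = above 50% but judged a plate artefact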;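 also: 50 nL library stock added to about 25 µL; numbers are from one replicate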
Mtb hypoxia rep = PubChem AID 1159583 | fluorescence inhibition, % (concentration not given with the values) | 0.1% of 300,000 active | M. tuberculosis hypoxia-regulated fluorescent reporter, fluorescence;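 active = 35 to 45% if threefold the growth effect, above 45% if 1.5-fold the growth effect; inactive = the rest, general growth blockers included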;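 also: wells of about 50 µL received 100 nL stock; 0% = vehicle wells and 100% = reference inhibitor wells; whole bacteria with a GFP reporter of the hypoxia response; strong numbers were not always called active; many hits fall short of the cut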
Mtb hypoxia rep growth = second read-out of Mtb hypoxia rep, no call of its own (marks repeat the call); growth inhibition, %; measured here: M. tuberculosis growth (absorbance);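 0% = vehicle and 100% = reference antibiotic; read after six days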
* = called active by the depositor; ? = inconclusive; · = no result given; & = joins results of further samples.

SMILES	Autofluor counter	ugtP null kill	RN4220 kill	PrP 5UTR inh	BJeLR viability	Mtb hypoxia rep	Mtb hypoxia rep growth
COc1cc(/C=C(\C#N)C(=O)Nc2ccccc2)ccc1OCCN1CCOCC1	4543	15	3.3	-30	-8	7	-3
Cc1nn(-c2ccccn2)c2c1C(=O)C(Br)CC2 (configuration not stated)	4113	3	-0.6	-2	·	21	7
CC(=O)Nc1ccc(S(=O)(=O)N2CCCCC2C(=O)O)cc1 (configuration not stated)	3443	8	6.6	-37	-2	-3	-4
N[C@@H](Cc1ccccc1)c1nnc(SCc2ccccc2F)o1	4472	-3	6.1	-21	4	9	1
Nn1c(SCC(=O)N2CCc3ccccc3C2)nnc1-c1cccs1	3433	13	2.3	-13	-7	3	3
COc1cc2cnc(-c3ccccc3)c(-c3cc(OC)c(OC)c(OC)c3)c2cc1OC	3621	-2	-4.2	-5	·	17	14
Cc1ccccc1NCC(=O)NN=Cc1ccc([N+](=O)[O-])s1	·	13	19	·	·	17	-5
FCCCOc1ccc(/C=N/OCc2ccc(Cl)cc2Cl)cc1	5094	·	·	-10	2	·	·
CCOC(=O)c1c(NC(=O)CC2Sc3ccc(C(F)(F)F)cc3NC2=O)sc(C)c1C (configuration not stated)	2516	4	4.7	-9	-2	18	5
COc1cc(O)c(C(CC(=O)N2CCCC(C)C2)c2ccc3c(c2)OCO3)c(OC)c1 (configuration not stated)	4065	-4	3.6	-1	4	12	16
O=C(O)c1cnn2cc(-c3[nH]ncc3[N+](=O)[O-])cnc12	2179	0	3.4	-21	4	6	-4
Fc1ccc(C2c3cccn3CCN2C(=S)Nc2cccc(F)c2)cc1 (configuration not stated)	4667	-11	-2.4	-17	11	-3	11
CC(=O)OC1CC(n2ccc(NC(=O)c3ccccc3)nc2=O)OC1CO (configuration not stated)	3432	-6	-15	-11	-6	-2	12
Cc1ccc(CC2S/C(=N/N=Cc3ccco3)NC2=O)cc1 (configuration not stated)	·	20	3.3	·	·	7	-3
CCOc1cc(C=O)ccc1OCCSc1ccc(Cl)cc1	9228	18	5.2	-4	-8	19	1
CCOC(=O)c1c(C)[nH]c(C)c1S(=O)(=O)N(C)CC(=O)Nc1ccccc1OC	4274	3	-0.7	-9	-15	13	0
Cc1cc(C)nc(-n2nc(C)c3c(C(F)F)cc(C)nc32)n1	4641	-4	0.6	-5	-12	·	·
C(/C=C/c1ccccc1)=NNc1nncc(-c2ccccc2)n1	·	-5	0.9	·	·	6	10
O=C(Cc1c[nH]c2ccccc12)NCc1ccc2c(c1)OCO2	2624	-2	1.6	-5	7	-1	-5
O=C(c1cc2ccccc2c(=O)o1)N1CCCC1	·	0	-2.2	·	13	-5	-5
CCC(=O)N1c2ccccc2NC2=C(C(=O)CC(C)(C)C2)C1c1ccc(O)c(OC)c1 (configuration not stated)	3148	1	-3.8	-25	-2	8	-8
CCOc1ccc(NC(=O)CN2CCC(n3cnc4cc(F)ccc43)CC2)cc1	4484	0	-5.0	-10	2	-2	2
CCCCC(=O)N/C(N)=N/c1nc2ccccc2o1	6069	2	0.0	-74	-8	2	0
CCOC(=O)Cc1csc(NC(=O)C2CCCN(S(=O)(=O)c3cnc[nH]3)C2)n1 (configuration not stated)	5554	3	0.1	-8	·	·	·
Cn1c(CNC(=O)CCNC(=O)c2ccc(F)c(F)c2)cc(=O)n(C)c1=O	3886	16	2.9	-2	7	4	-7

Of the compounds above, 3 have a thiophene ring, fused or not:
SMILES	Autofluor counter	ugtP null kill	RN4220 kill	PrP 5UTR inh	BJeLR viability	Mtb hypoxia rep	Mtb hypoxia rep growth
Nn1c(SCC(=O)N2CCc3ccccc3C2)nnc1-c1cccs1	3433	13	2.3	-13	-7	3	3
Cc1ccccc1NCC(=O)NN=Cc1ccc([N+](=O)[O-])s1	·	13	19	·	·	17	-5
CCOC(=O)c1c(NC(=O)CC2Sc3ccc(C(F)(F)F)cc3NC2=O)sc(C)c1C (configuration not stated)	2516	4	4.7	-9	-2	18	5

Reformatted with each value named: three of the compounds above
Cc1ccccc1NCC(=O)NN=Cc1ccc([N+](=O)[O-])s1
  Autofluor counter = ·
  ugtP null kill = 13
  RN4220 kill = 19
  PrP 5UTR inh = ·
  BJeLR viability = ·
  Mtb hypoxia rep = 17
  Mtb hypoxia rep growth = -5
FCCCOc1ccc(/C=N/OCc2ccc(Cl)cc2Cl)cc1
  Autofluor counter = 5094
  ugtP null kill = ·
  RN4220 kill = ·
  PrP 5UTR inh = -10
  BJeLR viability = 2
  Mtb hypoxia rep = ·
  Mtb hypoxia rep growth = ·
CCOC(=O)c1c(NC(=O)CC2Sc3ccc(C(F)(F)F)cc3NC2=O)sc(C)c1C (configuration not stated)
  Autofluor counter = 2516
  ugtP null kill = 4
  RN4220 kill = 4.7
  PrP 5UTR inh = -9
  BJeLR viability = -2
  Mtb hypoxia rep = 18
  Mtb hypoxia rep growth = 5

Carrying on:
SMILES	Autofluor counter	ugtP null kill	RN4220 kill	PrP 5UTR inh	BJeLR viability	Mtb hypoxia rep	Mtb hypoxia rep growth
COc1ccc(CNCCSc2nnnn2C)cc1OC	19838*	-3	3.8	-25	3	1	2
CCOC(=O)CSc1nc(-c2ccc3c(c2)OCO3)ccc1C#N	2109	0	1.2	-25	3	·	·
COc1ccccc1CC(=O)NCC1CCCO1 (configuration not stated)	2887	-5	-8.4	-5	3	8	0
Cc1ccc(S(=O)(=O)N2CCN=C2SCc2ccc(Cl)c(Cl)c2)cc1	2587	5	3.0	-30	5	8	5
Cc1ccnc(NS(=O)(=O)c2ccc(NC(=O)C3CC3)cc2)n1	6625	4	2.5	-22	-10	19	9
Cc1cc(N2CCN(C)CC2)nc2ccc(NC(=O)c3ccccc3F)cc12	4286	5	13	-46	0	11	10
O=C(Nc1cccnc1)c1noc2c1CCCC2	26961*	-1	5.7	-63	2	8	17
CN(C)c1ccc(CNCCC2(O)CCOC(C)(C)C2)cc1 (configuration not stated)	13412	4	2.3	-19	·	8	-1
O=C(Cc1ccc(NC(=O)C2CCCN(C(=O)C3CCCCC3)C2)cc1)Nc1ccc(C(=O)N2CCOCC2)cc1 (configuration not stated)	3740	3	3.7	-22	·	-5	3
Cc1ccc2nc(/C(C#N)=C\c3ccc(N4CCCCC4)c([N+](=O)[O-])c3)[nH]c2c1	9082	5	-1.4	-19	3	1	0
O=S(=O)(Nc1cc(S(=O)(=O)N2CCOCC2)ccc1O)c1ccc2c(c1)OCCCO2	8170	4	4.8	-3	·	-1	-2
CCOc1ccc(C(C(=O)NCC2CCCO2)N(Cc2ccccc2)C(=O)c2snc(C(N)=O)c2N)cc1 (configuration not stated)	5059	12	5.2	-11	3	6	5
Cc1cc(NC(=O)c2ocnc2C)no1	7514	8	6.7	-2	-4	5	4
Cc1ccc(NC(=O)CCNS(=O)(=O)c2cc(Br)cnc2N)cc1Cl	7580	-26	4.9	-3	-3	5	-3
CO/N=C/NC(=O)c1cn(-c2ccc(F)cc2)c(=O)c2ccccc12	16209*	10	5.0	4	5	-1	-4
CCOc1ccc(C(=O)CN2C(=O)NC3(CCCCCC3)C2=O)cc1	4709	9	2.0	-26	-9	2	7
CC(C)(C)c1ccc(Oc2coc3cc(OCC(=O)O)ccc3c2=O)cc1	3740	7	1.9	-5	-12	-1	-2
CN(CCc1ccccc1)C(=O)c1ccc(NC(=O)Cc2cccc(NC(=O)C3CCN(C(=O)c4ccccc4)CC3)c2)cc1	3192	-6	6.2	-33	·	-6	2
Cc1ccc(S(=O)(=O)N2CCC(C(=O)NCCCN3CCCCCC3)CC2)cc1	24422*	2	2.3	-27	0	3	4
Cc1ccccc1OCC(O)Cn1c(N2CCN(c3ccccc3)CC2)nc2c1c(=O)[nH]c(=O)n2C (configuration not stated)	2663	-7	5.3	-16	15	7	8
CC1CCc2sc(C(=O)N3CCN(c4ncccn4)CC3)cc2C1 (configuration not stated)	4840	1	2.3	-8	1	5	-2
Cc1ccc(CNC(=O)CNS(=O)(=O)c2ccc(Br)s2)cc1	3854	-13	2.6	-13	-1	14	2
Cc1ccc(C)c(S(=O)(=O)N(C)C2CCS(=O)(=O)C2)c1 (configuration not stated)	?	9	2.5	-8	1	6	2
O=C(O)CCCC(=O)Nc1ccc(N2CCCC2)cc1	3638	12	4.8	-20	-4	·	·
COc1ccc(NC(=O)c2sc3nc(C)nc(N4CCN(c5ccccn5)CC4)c3c2C)cc1Cl	5309	13	-6.0	2	-7	4	-1
Continuation:
SMILES	Autofluor counter	ugtP null kill	RN4220 kill	PrP 5UTR inh	BJeLR viability	Mtb hypoxia rep	Mtb hypoxia rep growth
O=c1[nH]n(-c2ccccn2)c(=O)c2ccccc12	4114	6	2.3	-14	0	·	·
O=C1NC(=Nc2ccccc2)SC1=Cc1cccn1-c1ccccc1	·	-21	-7.9	·	·	3	4
CC(=O)c1cnc2c(-c3ccccc3)c(-c3ccccc3)nn2c1C	4080	6	0.5	-9	-4	9	5
CC1CCc2[nH]c3ccc(C(=O)NCCCOC(C)C)cc3c2C1 (configuration not stated)	4428	10	2.1	-20	3	9	2
COc1ccc(OC)c(NS(=O)(=O)c2ccc3c(c2)n(C)c(=O)n3C)c1	3759	2	5.3	-19	3	15	12
Cc1cc2ccccc2c(=O)n1CC(=O)NCC(=O)N1CCCC(C)C1 (configuration not stated)	9191	-2	1.0	8	-1	5	10
COc1ccc(NC(=O)CN(C)C(=O)c2cc(C3CC3)nn2-c2ccccc2)cc1	3751	3	-3.5	-2	·	4	0
COCCN(C(=O)Cn1nnc2ccccc21)C(C(=O)NC1CCCC1)c1cc(OC)ccc1OC (configuration not stated)	3313	3	13	0	5	-4	5
CCOc1ccccc1NC(=O)N1CCCC(c2nc3c(nnn3Cc3ccc(C)cc3)c(=O)[nH]2)C1 (configuration not stated)	10793	-7	8.4	-1	14	-1	4
CCOC(=O)C(NC(=O)c1ccccc1F)(Nc1cc(C)on1)C(F)(F)F (configuration not stated)	2069	2	6.8	-23	4	1	1
COc1ccc(C(=O)C[n+]2ccc(N)c(C)c2C)cc1	4941	-4	4.0	-1	6	2	10
CCOC(=O)c1c(NC(=O)c2ccco2)sc2c1CCCCC2	12614	-9	-2.5	-30	-9	-4	-2
Cc1cccc(COC(=O)Nc2ccc(NC(=O)c3ccccc3Cl)cc2)c1	3056	14	3.0	11	1	11	2
CC(=CCC1=C(C)C(=O)c2ccccc2C1=O)CCCC(C)CCCC(C)CCCC(C)C (configuration not stated)	·	-1	7.7	·	·	1	-2
C=CCSc1nnc(COc2ccc(=O)n(-c3ccccc3)n2)n1CC	4152	3	7.1	-3	-5	10	2
Cc1ccccc1-c1nc(-c2ccccn2)no1	3588	5	4.1	70*	·	-1	3
COc1ccc(CC(=O)NC(C)c2ccc(Cl)c(Cl)c2)cc1S(=O)(=O)N1CCOCC1 (configuration not stated)	3005	0	1.6	-10	·	11	2
Cc1nnc(SCC2=C(C(=O)O)N3C(=O)C(NC(=O)C(C)n4nc(C(F)(F)F)cc4C)C3SC2)s1 (configuration not stated)	4553	101*	100*	-20	2	·	·
CCCCn1c(N)c(N(CCOC)C(=O)c2c(CC)noc2C)c(=O)[nH]c1=O	?	7	1.9	-8	·	4	11
COc1ccc(N(CC(=O)N2CCN(c3ccc(Cl)cc3)CC2)S(=O)(=O)c2c(C)n[nH]c2C)cc1	3208	0	3.2	3	-6	3	2
COc1ccc(NS(=O)(=O)c2csc(C(N)=O)c2)cc1OC	3323	-1	1.2	-11	14	15	6
COc1ccccc1NC(=O)COc1cccc(-n2cnnn2)c1	18765*	-7	-0.5	0	13	-15	-5
Cn1c(NCc2ccccc2)cc(=O)n(C)c1=O	4827	1	0.8	-5	7	·	·
COC(C(=O)NNS(=O)(=O)c1ccc([N+](=O)[O-])cc1)c1ccccc1 (configuration not stated)	6059	1	5.2	-11	-5	-4	-21
CCN(C(=O)COC(=O)c1cnc(C)cn1)C1CCS(=O)(=O)C1 (configuration not stated)	?	12	7.1	-10	5	-2	-12
COc1ccc(/C=C(/NC(=O)c2ccco2)C(=O)NCCc2ccccc2)cc1	4327	7	1.6	-14	1	10	1
Cc1cc(C)c2c(CC(=O)Nc3ccc(Cl)cn3)coc2c1	2167	1	-1.4	-12	-1	·	·
COc1c(Cl)cc(Cl)cc1C(=O)Nc1ccc(NC(C)=O)cc1	4526	11	3.3	-25	-2	2	5
CC1COC(=O)C(CC(=O)OC(C)(C)C)CC=CCC(CC(=O)N(CCO)Cc2ccccc2)C(=O)N1 (configuration not stated)	·	1&-3&5&-7&-1&1	2.7&7.8&5.1&3.4&7.7&4.4	·	·	-3&8&11&10&4&8	6&6&15&2&9&5
O=C(NCCCN1CCOCC1)c1ccc2c(c1)N(Cc1ccccc1)C(=O)c1ccccc1S2=O (configuration not stated)	4303	-2	-0.4	7	-6	-17	2

Bioassay records from PubChem BioAssay.
